MLL AF4-AF9 inh: MLL-AF4/AF9 protein interaction inhibition; P42568; 350,000 compounds, 0.47% hits; inhibition, % at 10 µM; AlphaScreen, biotin-AF4 peptide binding to FLAG-AF9;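 active = every replicate reaching a set inhibition limit, whatever the replicate mean, cut at about 25% in these data; inconclusive = mean inhibition reaches that limit but some replicates miss it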;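 note: 0% = plate neutral control median and 100% = total signal loss; the record names both 10 and 1 µM as test concentration; the first replicate is given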
Target sequence (P42568 whole entry, looked up): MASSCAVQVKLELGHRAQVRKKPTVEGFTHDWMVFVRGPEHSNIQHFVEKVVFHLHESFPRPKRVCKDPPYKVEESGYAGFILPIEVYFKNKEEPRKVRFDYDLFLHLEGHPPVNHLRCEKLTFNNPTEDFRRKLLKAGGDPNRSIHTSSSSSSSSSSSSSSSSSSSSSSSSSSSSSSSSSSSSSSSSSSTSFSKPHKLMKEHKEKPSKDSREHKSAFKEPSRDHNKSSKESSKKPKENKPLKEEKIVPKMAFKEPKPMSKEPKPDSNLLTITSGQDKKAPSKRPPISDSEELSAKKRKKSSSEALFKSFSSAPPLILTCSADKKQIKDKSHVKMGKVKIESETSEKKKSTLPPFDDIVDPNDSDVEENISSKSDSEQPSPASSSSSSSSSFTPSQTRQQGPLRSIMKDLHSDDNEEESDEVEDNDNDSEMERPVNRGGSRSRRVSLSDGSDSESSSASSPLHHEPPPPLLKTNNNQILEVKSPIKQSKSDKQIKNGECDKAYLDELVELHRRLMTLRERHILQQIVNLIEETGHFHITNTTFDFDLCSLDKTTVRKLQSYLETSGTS
FGF22 binding: binders of recombinant human FGF22 by thermal shift | Q9HCT0 | SYPRO orange fluorescence; percent of sucrose octasulfate shift, DMSO zero | AID 651658 | calls only at 9.99 µM | 340,000 compounds, 1.5% hits;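 active = melting point raised past a set limit in the mean and every replicate; inconclusive = no clear call; three in four hits are not shown here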
Target sequence (Q9HCT0 whole entry, looked up): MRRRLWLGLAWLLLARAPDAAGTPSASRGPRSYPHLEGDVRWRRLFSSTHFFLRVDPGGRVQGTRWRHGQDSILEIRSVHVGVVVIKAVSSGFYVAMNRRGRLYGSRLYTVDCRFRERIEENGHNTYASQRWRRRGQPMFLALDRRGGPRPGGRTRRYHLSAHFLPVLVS
RanGTP-Impb inh: disruptors of Ran-importin-beta complex formation – biochemical, FRET, CFP-Ran, YFP-importin-beta, homogeneous, primary screen; 300,000 compounds, 1.1% hits; inhibition, % (concentration not given with the values); cell-free CFP-Ran/YFP-importin-beta FRET ratio;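 active = most replicates above 15%; inconclusive = exactly half above 15%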;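 note: 0% = DMSO wells and 100% = Ran loaded with GDP instead of GTP; wells of about 40 µL received 100 nL stock; the first replicate is given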
ALR H2O2 inh: blocks human ALR sulfhydryl oxidase activity | P55789 | 290,000 compounds, 3.8% hits | purified ALR, DTT oxidation, H2O2 HRP-luminol luminescence | AID 485317 | inhibition, % (test concentration not listed);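 active = mean and each replicate at 75% or more; inconclusive = only one of the two met; inactive = neither met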;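 note: stock transfer was 7.5 nL into about 7.5 µL; 0% = neutral wells and 100% = wells with inactivated enzyme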
Target sequence (P55789 whole entry, looked up): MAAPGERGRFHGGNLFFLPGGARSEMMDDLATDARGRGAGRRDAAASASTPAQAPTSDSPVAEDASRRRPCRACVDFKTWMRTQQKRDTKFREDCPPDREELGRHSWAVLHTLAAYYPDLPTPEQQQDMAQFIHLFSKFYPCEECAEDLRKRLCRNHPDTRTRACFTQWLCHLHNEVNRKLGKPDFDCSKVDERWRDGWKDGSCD
rRNA inh HTS: inhibits bacterial ribosomal RNA function over humanized ribosomes; E. coli WT GFP vs humanized-ribosome RFP mutants, fluorescence, 24 h; stronger effect = lower value; DMSO median 0, no signal -100; 350,000 compounds, 1.6% hits; GFP signal change (wild-type ribosome), % (test concentration not listed); AID 720706;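 active = significant combined selectivity score with lowered wild-type GFP, culture density cut under 30%, mutant RFP and density less affected; inactive = any of these conditions unmet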; note: one replicate is shown; some compounds called inactive have numbers as strong as hits
T cruzi repl: blocks replication of Trypanosoma cruzi; T. cruzi beta-gal in NIH3T3, luminescence, 90 h; inhibition, % (concentration not given with the values); 300,000 compounds, 1.4% hits; AID 1885;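 active = mean inhibition across valid replicates above about 55%, limit read from the data; inconclusive = mean below that limit but half or more replicates reach it; inactive = mean below it, under half of replicates reach it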;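 note: signal also drops with host cell toxicity which is not excluded here; 0% = plate median of DMSO wells and 100% = zero luminescence signal; higher percent means less beta-gal luminescence so fewer parasites; stock transfer was 50 nL into about 50 µL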
Beta cell apopt: beta cell apoptosis inhibition. INS-1E cytokine-induced death, ATP luminescence, 48 h; percent of positive-control rescue, neutral wells zero. protection from apoptosis, % (test concentration not listed). 300,000 compounds, 0.8% hits. AID 435005;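 active = all replicates at 75% or more, or half of them and the mean; inconclusive = half reach 75% but not the mean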;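 note: 0% = cytokine-treated negative control wells and 100% = positive control rescue; higher means more ATP so stronger rescue from cytokine killing; wells of about 40 µL received 100 nL stock; the first replicate is given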
Calb FLC: C. albicans growth modulation with fluconazole | C. albicans CaCi-2 (fluconazole-resistant clinical isolate) + fluconazole, Alamar Blue growth, 48 h | growth inhibition, % (no concentration beside the values) | 300,000 compounds, 0.57% hits | AID 1979;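 active = most replicates above 75%; inconclusive = exactly half above 75%; inactive = most below 75%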;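 note: all wells also contain fluconazole at 8 µg/ml as a sub-toxic cotreatment; 0% = median of DMSO wells and 100% = median of geldanamycin control wells; wells of about 8 µL received 7.5 nL stock; the first replicate is given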
rRNA inh HTS OD600: further read-out of rRNA inh HTS, marked with its call; OD600 change, %; measured here: OD600 growth;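 optical density of the mix in the first replicate; 0 = DMSO median and -100 = no signal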
rRNA inh HTS RFP: second read-out of rRNA inh HTS, no call of its own (marks repeat the call); RFP signal change, %; measured here: RFP humanized mutant strains;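 first replicate; 0 = DMSO median and -100 = no signal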
Starred values were filed as active, the others as inactive. Not all compounds are listed, so the mix of outcomes need not match the whole.

Screening C=CCNC(=O)c1ccc2c(=O)n(Cc3ccccc3OC)c(=S)[nH]c2c1 returned MLL AF4-AF9 inh 0.4, FGF22 binding inactive, RanGTP-Impb inh -0.8, rRNA inh HTS 1.9, T cruzi repl 1.4, Calb FLC -9.1, rRNA inh HTS OD600 2.5 and rRNA inh HTS RFP 0.8.
`CC(=O)Nc1ccc(C(=O)OCC(=O)N2CCN(C(=O)c3ccco3)CC2)cc1` gave MLL AF4-AF9 inh -1.1, FGF22 binding inactive, ALR H2O2 inh -0.8 and Beta cell apopt 0.6.
`O=c1oc2ccccc2c(Nc2cccc3ccccc23)c1[N+](=O)[O-]` gave RanGTP-Impb inh -0.4, ALR H2O2 inh -5.1, T cruzi repl 8.6, Beta cell apopt 2.2 and Calb FLC -9.0.
For COC(=O)C1=C(C)NC(C)=C(C(=O)OC)C1c1ccc(OC(=O)c2oc3ccccc3c2C)c(OC)c1 the results were RanGTP-Impb inh 0.7, ALR H2O2 inh -13.3, T cruzi repl -10.4, Beta cell apopt 0.5 and Calb FLC 2.5.
COc1ccc(Cc2nc3ccccc3[nH]c2=O)cc1 was read as MLL AF4-AF9 inh -1.4, FGF22 binding inactive, RanGTP-Impb inh 1.5, ALR H2O2 inh 2.9, rRNA inh HTS 2.7, T cruzi repl -2.4, Beta cell apopt 0.2, Calb FLC 1.4, rRNA inh HTS OD600 0.3 and rRNA inh HTS RFP -3.0.
`CC(=O)Cc1nsc(NC(=O)c2ccc(COc3ccccc3C)o2)n1` gave MLL AF4-AF9 inh 2.2, FGF22 binding inactive, RanGTP-Impb inh -0.8, rRNA inh HTS -11.6, T cruzi repl -1.8, Beta cell apopt -0.6, Calb FLC 10.5, rRNA inh HTS OD600 -0.5 and rRNA inh HTS RFP 9.4.
Cc1ccccc1NCCC(=O)Nc1ccc(Cl)cc1 was read as MLL AF4-AF9 inh 11.7, FGF22 binding inactive, RanGTP-Impb inh -0.7, ALR H2O2 inh 98.5*, rRNA inh HTS -3.3, T cruzi repl 2.1, Beta cell apopt -1.3, Calb FLC -0.7, rRNA inh HTS OD600 -30.9 and rRNA inh HTS RFP 5.2.
For O=C(COC(=O)/C=C/c1ccc(Cl)cc1Cl)NCc1ccco1 the results were MLL AF4-AF9 inh 0.5, FGF22 binding inactive, RanGTP-Impb inh 2.1, ALR H2O2 inh -1.9, rRNA inh HTS -23.5, T cruzi repl -15.9, Beta cell apopt -12.5, Calb FLC 24.3, rRNA inh HTS OD600 -21.4 and rRNA inh HTS RFP -3.0.
For COc1ccc(NC(=O)CCN2C(=O)C3C4CCC(C4)C3C2=O)cc1 (stereo not given) the results were RanGTP-Impb inh 1.2, T cruzi repl 0.6, Beta cell apopt -11.0 and Calb FLC -6.4.
For Cc1cccc(-n2nnc(C(=O)NCc3ccccc3Cl)c2N)c1 the results were MLL AF4-AF9 inh 1.0, FGF22 binding inactive, RanGTP-Impb inh 0.5, ALR H2O2 inh -14.4, rRNA inh HTS -9.3, T cruzi repl 38.7, Beta cell apopt 3.4, Calb FLC -5.2, rRNA inh HTS OD600 -22.1 and rRNA inh HTS RFP -1.9.
For CCN1CCN(C(=O)CS(=O)(=O)Cc2nc(-c3ccccc3C)oc2C)CC1 the results were MLL AF4-AF9 inh -1.3, FGF22 binding inactive, RanGTP-Impb inh 1.5, ALR H2O2 inh -15.5, rRNA inh HTS 2.2, T cruzi repl 11.4, Beta cell apopt -0.4, Calb FLC 2.3, rRNA inh HTS OD600 4.7 and rRNA inh HTS RFP -2.7.
`COC(=O)C1CCN(S(=O)(=O)Cc2ccccc2)CC1` gave MLL AF4-AF9 inh -48.7, FGF22 binding inactive, RanGTP-Impb inh 2.9, ALR H2O2 inh -4.5, rRNA inh HTS 2.2, T cruzi repl -0.4, Beta cell apopt 3.1, Calb FLC -12.4, rRNA inh HTS OD600 4.1 and rRNA inh HTS RFP -5.9.
`N#Cc1sc2nc(-c3cccs3)cc(-c3ccc(Cl)cc3)c2c1N` gave MLL AF4-AF9 inh -79.1, FGF22 binding inactive, RanGTP-Impb inh -82.3, ALR H2O2 inh -5.7, rRNA inh HTS 13.8, T cruzi repl 24.4, Beta cell apopt -2.0, Calb FLC 61.9, rRNA inh HTS OD600 10.3 and rRNA inh HTS RFP 17.2.
Screening COc1ccc(NC(=S)N2CCC(C(=O)N3CCCCCC3)CC2)cc1 returned RanGTP-Impb inh 0.9, ALR H2O2 inh -6.1, T cruzi repl 17.2, Beta cell apopt -10.2 and Calb FLC -11.5.
`Cc1cccc(S(=O)(=O)Nc2ccc(-n3c(C)nc4ccccc4c3=O)cc2)c1` gave MLL AF4-AF9 inh 9.4, FGF22 binding inactive, RanGTP-Impb inh 6.9, ALR H2O2 inh -6.4, rRNA inh HTS -13.1, T cruzi repl -11.2, Calb FLC 5.3, rRNA inh HTS OD600 -29.6 and rRNA inh HTS RFP 2.0.
Cc1ccc2[nH]c(=O)c(CN(Cc3cccs3)C(=S)NCc3ccco3)cc2c1 was read as MLL AF4-AF9 inh 4.7, FGF22 binding inactive, RanGTP-Impb inh -1.2, rRNA inh HTS -4.6, T cruzi repl 6.9, Beta cell apopt -0.4, Calb FLC -15.2, rRNA inh HTS OD600 -7.4 and rRNA inh HTS RFP 15.6.
Screening Cc1cccnc1NC(=O)c1ccc(COc2ccccc2)o1 returned MLL AF4-AF9 inh -3.5, FGF22 binding inactive, RanGTP-Impb inh -1.0, ALR H2O2 inh -4.8, rRNA inh HTS -0.5, T cruzi repl -1.4, Beta cell apopt -2.7, Calb FLC -5.8, rRNA inh HTS OD600 2.3 and rRNA inh HTS RFP -3.9.
For COc1ccc(OC)c2[nH]c(=O)c(CCNC(=O)c3ccc(S(=O)(=O)N4CCCC4)cc3)cc12 the results were RanGTP-Impb inh 3.1, ALR H2O2 inh -8.8, T cruzi repl 7.7, Beta cell apopt 6.3 and Calb FLC 25.3.
For CCOC(=O)Cn1c(=O)oc2cc(S(=O)(=O)Nc3ccc(F)cc3)ccc21 the results were MLL AF4-AF9 inh 0.7, FGF22 binding inactive, RanGTP-Impb inh 3.0, ALR H2O2 inh 0.4, rRNA inh HTS 0.9, T cruzi repl 12.0, Beta cell apopt -12.2, Calb FLC 16.2, rRNA inh HTS OD600 1.7 and rRNA inh HTS RFP 3.9.
`CCc1ccccc1C1C(=O)c2ccccc2C1=O` gave MLL AF4-AF9 inh -0.3, FGF22 binding inactive, RanGTP-Impb inh 3.9, ALR H2O2 inh -10.7, rRNA inh HTS 4.5, T cruzi repl -8.8, Beta cell apopt -6.8, Calb FLC -6.5, rRNA inh HTS OD600 3.4 and rRNA inh HTS RFP -0.3.
For O=C(CN1C(=O)C2C3C=CC(C3)C2C1=O)Nc1cccc(S(=O)(=O)N2CCCC2)c1 (stereo not given) the results were RanGTP-Impb inh 4.7, ALR H2O2 inh -16.6, T cruzi repl -1.2, Beta cell apopt -1.9 and Calb FLC -2.2.
Screening O=S(=O)(Nc1cc(Cl)cc(Cl)c1)N1CCOCC1 returned MLL AF4-AF9 inh -10.3, FGF22 binding inactive, RanGTP-Impb inh 0.0, ALR H2O2 inh 1.1, rRNA inh HTS -5.0, T cruzi repl -20.9, Beta cell apopt 3.0, Calb FLC 1.9, rRNA inh HTS OD600 -7.8 and rRNA inh HTS RFP 0.8.
Cc1ccc2cccc(Oc3ncnc4scc(-c5ccc(Cl)cc5)c34)c2n1 was read as MLL AF4-AF9 inh -7.5, FGF22 binding inactive, RanGTP-Impb inh 0.5, rRNA inh HTS 8.6, T cruzi repl 7.9, Beta cell apopt 9.6, Calb FLC 35.9, rRNA inh HTS OD600 -7.2 and rRNA inh HTS RFP -3.2.
For Cc1ccccc1NC(=O)Cc1nnc(SCC(=O)N2CCN(c3ccccc3)CC2)n1C the results were RanGTP-Impb inh 2.4, ALR H2O2 inh 22.1, T cruzi repl 1.0, Beta cell apopt -9.0 and Calb FLC inconclusive.
Screening Cc1cc(NC(=O)c2sc3ccccc3c2O)no1 returned MLL AF4-AF9 inh 1.0, FGF22 binding inactive, RanGTP-Impb inh 16.6*, ALR H2O2 inh -4.2, rRNA inh HTS -1.0, T cruzi repl -12.1, Beta cell apopt -0.2, Calb FLC 46.2, rRNA inh HTS OD600 -15.2 and rRNA inh HTS RFP 53.8.
For Cc1cc2c(n1-c1ccc(Cl)cc1)CC(C)(C)CC2=O the results were RanGTP-Impb inh 1.1, ALR H2O2 inh -7.1, T cruzi repl 36.0, Beta cell apopt 9.1 and Calb FLC 11.3.
Screening COC(=O)Cn1c(O)c(N=NC(=O)c2ccc3c(c2)OCO3)c2ccccc21 returned MLL AF4-AF9 inh -1.5, FGF22 binding inactive, RanGTP-Impb inh -2.1, ALR H2O2 inh -2.0, rRNA inh HTS 9.4, T cruzi repl -14.8, Beta cell apopt -0.6, Calb FLC 12.1, rRNA inh HTS OD600 7.2 and rRNA inh HTS RFP -0.5.
Cc1ccc(/C=N/NC(=O)CN2CCN(Cc3ccccc3)CC2)o1 was read as MLL AF4-AF9 inh -5.3, FGF22 binding inactive, RanGTP-Impb inh -1.1, ALR H2O2 inh -1.0, rRNA inh HTS 11.5, T cruzi repl 0.8, Beta cell apopt -4.0, Calb FLC -0.8, rRNA inh HTS OD600 11.8 and rRNA inh HTS RFP 6.2.
`Cc1ccc(OCc2nnc(SCc3cc(=O)[nH]c4ccccc34)n2-c2ccccc2)cc1` gave MLL AF4-AF9 inh 4.1, FGF22 binding inactive, RanGTP-Impb inh 4.4, ALR H2O2 inh -5.9, rRNA inh HTS -10.3, T cruzi repl 7.0, Beta cell apopt -2.0, Calb FLC -4.1, rRNA inh HTS OD600 -25.0 and rRNA inh HTS RFP -4.7.
COc1ccc(C(=O)c2c3ccccc3[n+]([O-])n2CCC(N)=O)cc1 was read as MLL AF4-AF9 inh -1.1, FGF22 binding inactive, RanGTP-Impb inh -4.5, ALR H2O2 inh 21.3, rRNA inh HTS 11.1, T cruzi repl -3.0, Beta cell apopt -0.1, Calb FLC 0.5, rRNA inh HTS OD600 12.8 and rRNA inh HTS RFP 1.5.
Screening O=C(NCCCN1CCOCC1)C(=O)NCC1CCCO1 (stereo not given) returned RanGTP-Impb inh -1.4, ALR H2O2 inh 0.2, T cruzi repl -21.2 and Calb FLC 6.8.
For Cc1cc(C(=O)NNC(=O)CCCOc2ccccc2)c(C)o1 the results were MLL AF4-AF9 inh -21.6, RanGTP-Impb inh -3.0, ALR H2O2 inh -0.2, rRNA inh HTS 1.6, T cruzi repl 4.8, Beta cell apopt 2.5, Calb FLC -5.7, rRNA inh HTS OD600 2.5 and rRNA inh HTS RFP -0.1.
O=c1cc(CSc2nnc(-c3cccnc3)n2-c2ccccc2F)nc2sccn12 was read as MLL AF4-AF9 inh 4.0, FGF22 binding inactive, RanGTP-Impb inh 7.2, ALR H2O2 inh -2.9, rRNA inh HTS 5.3, T cruzi repl 0.3, Beta cell apopt -2.2, Calb FLC -8.2, rRNA inh HTS OD600 9.7 and rRNA inh HTS RFP 3.2.
